# Assay outcomes from PubChem.
# Hedgehog cleavage: Hh protein inhibition, biochemical readout – plate reader, single concentration, primary screen (AID 588832); Biochemical plate reader assay, Hedgehog inhibition; hits give high values; inhibition, % at 30.3 µM; 8,000 tested, under 10 active; in the data active = inhibition from about 57%; inconclusive = about 30 to 43% in a few cases; inactive = the rest, 99 in 100 below about 25%;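 note: 0% = neutral control wells and 100% = positive control wells; cholesterol-driven self-cleavage of fly hedgehog protein by fluorescence polarization; read one hour after cholesterol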
# Starred values were filed as active, the others as inactive; ? = inconclusive. Some of the compounds tested, so the mix of outcomes need not match the whole.
Structure | Hedgehog cleavage
CCOC(=O)C(C)Oc1cccc2c(=O)n(CC(=O)Nc3ccc4c(c3)OCCO4)ccc12 (stereo unspecified) | -2
CCCc1nc(SCC(=O)Nc2ccccc2OC)c2c(=O)n(C)c(=O)n(C)c2n1 | 5
Cc1cc2cc(CNC(=O)c3cccs3)ccc2[nH]1 | 4
COC(=O)C1C2C=CC3(CN(c4ccc(Cl)c(F)c4)C(=O)C13)O2 (stereo unspecified) | 17
CN1CCSc2ccc(C(=O)NCc3ccccc3)cc21 | 0
Cc1cc2ccccc2n1CCNC(=O)Cc1ccccc1 | ?
O=C(NCCN1CCc2ccccc2C1)Nc1ccc(F)cc1 | 5
Cc1cc(C)n(-c2ncc(-c3ccccc3)nn2)n1 | 0
O=C1CC(c2ccc(O)c(O)c2)Oc2cc(O)cc(O)c21 (stereo unspecified) | 5
CC(/C=C/C1(O)C(C)CC(=O)CC1(C)C)OC1OC(CO)C(O)C(O)C1O (stereo unspecified) | 9
CCOc1ccc(C2c3c(oc4cc(C)c(C)cc4c3=O)C(=O)N2CCCN(C)C)cc1OC (stereo unspecified) | 2
C[C@@H]1[C@H](O)C[C@@]23COC(=O)C2=CCC[C@@H]3[C@@]1(C)CC/C(=C/CO)CO | 7
Cc1ccccc1-n1c(Cn2c(=O)sc3ccccc32)nnc1SC(C)C | -2
CCc1cc(=O)oc2cc(C)cc(OCC(=O)N3CCC(C(=O)O)CC3)c12 | 2
CC(C)C[C@H](NC(=O)N1CCn2c1nc1ccccc12)C(=O)N[C@H](Cc1ccccc1)C(=O)O | 10
Cc1cc(OC(C)C(=O)NCC2CCC(C(=O)O)CC2)c2c(C)c(Cc3ccccc3)c(=O)oc2c1 (stereo unspecified) | 2
COc1ccc(/C=C2\Oc3cc(OCC(=O)N4CCC(C(=O)O)CC4)ccc3C2=O)c(OC)c1 | 5
O=C(COc1ccc(S(=O)(=O)NC2CCCCC2)cc1)Nc1ccc2c(c1)OCCO2 | 25
CN(Cc1ccccc1)c1nc2c(c(=O)n(C)c(=O)n2C)n1CCSc1ncccn1 | 0
CCCc1cc(C(=O)Nc2sc(C)c(C)c2C(=O)OCC)no1 | 3

# (cont.)
Structure | Hedgehog cleavage
OC1CCCCC1 | 0
COc1ccc(NC(=O)CN2CC(c3ccccc3)CC2=O)cc1OC (stereo unspecified) | 11
Cc1ccccc1C1CC(c2ccccc2)Nc2ncnn21 (stereo unspecified) | 12
CCOC(=O)CC1C(=O)NCCN1C(=O)c1cc2c(=O)n3cccc(C)c3nc2s1 (stereo unspecified) | 5
CC(=O)Nc1ccc(C)cc1 | 4
O=C(Nc1nc2c(F)cc(F)cc2s1)c1ccco1 | 6
CCCOc1ccc(N2C(=O)CC(N3CCN(c4ccccc4OC)CC3)C2=O)cc1 (stereo unspecified) | 15
COc1ccc(NC(=O)CC2Sc3ncnn3C2=O)cc1 (stereo unspecified) | 6
Cn1c(=O)c2c(nc(CN3CCN(Cc4ccccc4)CC3)n2Cc2ccc(Cl)cc2)n(C)c1=O | 10
CN(C)NC(=O)c1ccsc1NC(=O)c1ccc(S(=O)(=O)N(C)C)cc1 | 6
Cc1cc2[nH]c(=O)c(=O)[nH]c2cc1S(=O)(=O)N1CCN(c2cccc(C)c2C)CC1 | 6
Cc1ccc2c(c1)NC(=O)C(CC(=O)NCc1ccc(F)cc1)O2 (stereo unspecified) | -2
Cc1nc2sc(C(c3cccs3)N3CCN(C(=O)c4ccco4)CC3)c(O)n2n1 (stereo unspecified) | 0
O=S(=O)(Nc1cccc(-c2nc3cccnc3s2)c1)c1ccc2c(c1)OCCO2 | -10
CCOc1ccc(NS(=O)(=O)c2coc(C(N)=O)c2)cc1 | 8
COc1ccc(NC(=O)NCCCN2CCN(c3cc(C)ccc3C)CC2)cc1 | 4
Cc1c(Cc2ccc3c(c2)OCO3)sc(NC(=O)c2cccc3ccccc23)c1C(N)=O | 8
Cc1ccc(S(=O)(=O)N[C@@H](CC(C)C)C(=O)N2CCC(C(=O)N[C@@H](Cc3ccccc3)C(=O)O)CC2)cc1 | 9
O=C(Nc1ccc(S(=O)(=O)N2CCCC2)cc1)C1COc2ccccc2O1 (stereo unspecified) | 17
Cc1ccc2c(cnn2C(=O)CCC(=O)N2CCCCC2)c1 | 5

# Arranged by value in Hedgehog cleavage (high to low): some entries from above
Structure | Hedgehog cleavage
Cc1cc2[nH]c(=O)c(=O)[nH]c2cc1S(=O)(=O)N1CCN(c2cccc(C)c2C)CC1 | 6
CCOC(=O)CC1C(=O)NCCN1C(=O)c1cc2c(=O)n3cccc(C)c3nc2s1 (stereo unspecified) | 5
OC1CCCCC1 | 0

# (continued)
Structure | Hedgehog cleavage
CC(C)NS(=O)(=O)c1ccc2c(c1)oc(=O)n2C | 11
Clc1cccc(N2CCN(Cc3nc(-c4ccccc4)no3)CC2)c1 | 29
CCN(Cc1ccccc1)S(=O)(=O)c1cc2[nH]c(=O)c(=O)[nH]c2cc1C | -2
CCOC(=O)N1CCN(C(=O)c2ccccc2NC(=O)COc2ccccc2C)CC1 | 5
CCOC(=O)N1CCN(C(=O)Cn2ccc3c(OC)cccc3c2=O)CC1 | 5
CC1CC(C)CN(S(=O)(=O)c2ccc(NC(=O)C3COc4ccccc4O3)cc2)C1 (stereo unspecified) | 25
O=C(CCC(=O)N1CCOc2ccccc21)N1CCN(c2ccccc2)CC1 | 3
CCOC(=O)N1CCN(C(=O)CSc2nc3c(cnn3-c3ccc(Cl)cc3)c(=O)[nH]2)CC1 | 4
Cc1ccc(-n2c3c(cc(C(=O)NCCCN4CCOCC4)c2=O)C(=O)CC(C)(C)C3)cc1 | -2
Cc1ccc(-n2nnc3c(=O)n(Cc4ccccc4C)cnc32)cc1 | 10
CCC1(CC)C(=O)Nc2ccccc21 | 7
O=C(Cn1cc2c(n1)CCCC2)N1CCCC1 | 13
COc1c(Cl)cc(C(=O)O)cc1Cl | 5
COc1cccc(Nc2cc(C)nc3nc(C)nn23)c1 | 8
CCOc1ccc(-c2cc(CCCC(=O)NCc3cccnc3)no2)cc1 | 10
O=C(NCCn1cc(SCc2ccc(F)cc2)c2ccccc21)c1ccccc1F | 4
CN1CCN(S(=O)(=O)c2ccc3c(c2)C(C)(C)C(=O)N3C)CC1 | 7
CCCCCc1c2c(cc(O)c1C(=O)O)OC(=O)c1cc(C(=O)CCCC)c(OC)cc1O2 | 9
COc1ccc(Br)cc1CNC(=O)c1ccc2c(c1)N(C)CCS2 | -7
O=C(NCCc1c[nH]c2ccccc12)C(=O)NCC1OCCN1S(=O)(=O)c1ccc(Cl)cc1 (stereo unspecified) | 12

# 3 records picked at random from those above, as already listed:
Structure | Hedgehog cleavage
O=C(NCCn1cc(SCc2ccc(F)cc2)c2ccccc21)c1ccccc1F | 4
CCOC(=O)N1CCN(C(=O)Cn2ccc3c(OC)cccc3c2=O)CC1 | 5
CCC1(CC)C(=O)Nc2ccccc21 | 7

# Next section
Structure | Hedgehog cleavage
CCOC(=O)Cn1c(CN2CCOCC2)nc2c1c(=O)[nH]c(=O)n2C | 6
Cc1c(C)c2c(OCC(=O)NCC(O)c3ccccc3)cc3c(c2oc1=O)CCC(C)(C)O3 (stereo unspecified) | 3
CCOc1ccc(C(=O)Nc2c3c(nn2-c2ccc(C)cc2)CS(=O)C3)cc1OCC (stereo unspecified) | 4
CC(C)N(Cc1nc(-c2ccccc2)no1)S(=O)(=O)c1ccccc1 | 9
O=c1cc(Nc2ccc3c(c2)OCCO3)[nH]c(=O)n1-c1ccc(Cl)cc1 | 5
CCn1c(SCC(=O)N2CCCCC2)nc2c(c1=O)SC(C)C2 (stereo unspecified) | 3
COCCCNc1nc2c(-c3cccc(C(F)(F)F)c3)nnn2c2ccccc12 | 7
CC(Oc1ccc2c(c1)oc(=O)c1ccccc12)C(=O)NCC1CCC(C(=O)O)CC1 (stereo unspecified) | 5
CCCCCNC(=O)Cc1cc(=O)[nH]c(=O)[nH]1 | -5
CC(C)[C@H]1C(=O)Nc2ccccc2N1C(=O)N[C@@H](Cc1ccccc1)C(=O)N[C@@H](C(=O)O)c1ccccc1 | 7
Cc1cc(OCC(=O)N2CCC(C(=O)O)CC2)c2c(C)cc(=O)oc2c1 | 3
Clc1ccc(C2CC(c3cccs3)n3ncnc3N2)cc1Cl (stereo unspecified) | 8
Cc1c(C(=O)NCc2cccnc2)sc2nc(-c3ccc(F)cc3)cn12 | 4
COC(=O)C1(Cc2ccc(O)c(CC3OC3(C)C)c2)OC(=O)C(O)=C1c1ccc(O)cc1 (stereo unspecified) | 7
CCOc1ccc2[nH]c(C)cc(=O)c2c1 | 5
Clc1ccccc1-c1nnc2sc(-c3ccncc3)nn12 | 10
COc1cccc(C(=O)N=c2sc3c(C)ccc(OC)c3n2C)c1 | 4
CCN(CCCNC(=O)Cn1ncc2c(=O)oc3ccccc3c21)c1cccc(C)c1 | 10
Cc1c(C)c2c(OCC(=O)N[C@@H](Cc3ccccc3)C(=O)O)cc3c(c2oc1=O)CCC(C)(C)O3 | -2
COc1c2c(cc3oc(=O)c4c5ccc(O)cc5oc4c13)OC(C)(C)CC2 | -2

# An excerpt of these results, as labelled records:
> O=C(Cn1cc2c(n1)CCCC2)N1CCCC1
  Hedgehog cleavage = 13
> COc1c(Cl)cc(C(=O)O)cc1Cl
  Hedgehog cleavage = 5
> COc1cccc(Nc2cc(C)nc3nc(C)nn23)c1
  Hedgehog cleavage = 8
> CCOc1ccc(-c2cc(CCCC(=O)NCc3cccnc3)no2)cc1
  Hedgehog cleavage = 10

# Another view of part of the listing above.
CC(C)[C@H]1C(=O)Nc2ccccc2N1C(=O)N[C@@H](Cc1ccccc1)C(=O)N[C@@H](C(=O)O)c1ccccc1
  Hedgehog cleavage = 7
Cc1c(C)c2c(OCC(=O)NCC(O)c3ccccc3)cc3c(c2oc1=O)CCC(C)(C)O3 (stereo unspecified)
  Hedgehog cleavage = 3

# Next part
Structure | Hedgehog cleavage
Cn1c(=O)c2c(nc(CN3CCN(Cc4ccccc4)CC3)n2Cc2cccc(Cl)c2)n(C)c1=O | 5
CCn1c(=O)cc(N2CCC3(CC2)OCCO3)[nH]c1=O | 4
CC[C@@H]1CN(C)[C@H]2Cc3c([nH]c4ccccc34)C(=O)C[C@@H]1[C@@H]2C(=O)OC | 5
COc1cccc(-c2nc(CS(=O)(=O)CC(=O)N3CCc4ccccc4C3)c(C)o2)c1 | 17
O=C1CCCC2=C1C(c1ccsc1)CC(=O)N2c1nnc(SCc2ccccc2)s1 (stereo unspecified) | 15
Cc1cc(=O)n2nc(N3CCCC3C(=O)Nc3cccc(F)c3)sc2n1 (stereo unspecified) | 7
O=C1c2ccccc2C(O)N1c1cccnc1 (stereo unspecified) | -4
COc1ccc(C)cc1NC(=O)CSc1nnc(-c2ccc(C)cc2)o1 | 2
COc1ccc(C)cc1Nc1cc(C)nc2ncnn12 | 4
Cc1c2cnn(CC(=O)NCCN3CCOCC3)c(=O)c2c(C)n1Cc1ccccc1 | 5
CCN(CC)S(=O)(=O)c1ccc(C2CNC(=O)C2)cc1 (stereo unspecified) | 4
Cc1nn(CCCC(=O)NCc2ccccc2Cl)c(=O)c2nccn12 | 5
Cc1cc2[nH]c(=O)c(=O)[nH]c2cc1S(=O)(=O)N1CCN(c2ccccc2)CC1 | 7
CC(C)[C@H](NC(=O)N1c2ccccc2NC(=O)[C@@H]1C(C)C)C(=O)N[C@@H](Cc1ccccc1)C(=O)O | 5
O=C(O)c1cc(S(=O)(=O)Nc2ccc3c(c2)OCCO3)c(Cl)cc1Cl | 17
COC(=O)C(C)n1cnc2c(nnn2-c2ccc(F)cc2)c1=O (stereo unspecified) | 4
COc1ccc(C(=O)NCc2nnc(SCC(=O)Nc3nnc(C)s3)o2)cc1 | 7
COc1cc(/C=C\C(=O)OCn2nnc3ccccc3c2=O)cc(OC)c1OC | -10
O=C(CN1CCc2cc3c(cc2C1)OCCCO3)Nc1ccccc1 | 2
Cc1ccc(N(C(C)C(=O)O)S(=O)(=O)c2c(C)[nH]c(=O)[nH]c2=O)cc1 (stereo unspecified) | 0
Cc1ccc(CCNC(=O)Cc2ccc(NC3=NC4CS(=O)(=O)CC4S3)cc2)cc1 (stereo unspecified) | 5
